D2 PAM: human D2 receptor positive allosteric modulation. P14416. DiscoveRx D2 beta-arrestin cells, luminescence, 90 min; 100% = 57 uM dopamine signal. potentiation, % (no concentration beside the values). actives 0.23% (n = 360,000); active = potentiation of 50% or more; inconclusive = 30% to 50%; inactive = 30% or less;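 note: compound concentration not given in the record; tested on top of an EC20 dose of dopamine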
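PathHunter D2 cells, attached overnight at 37 deg C, received compound in DMSO plus dopamine at EC20 (50 nM final) for 90 min at 37 deg C. Beta-arrestin recruitment was read as luminescence after 1 h with detection reagent at ambient temperature.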
Six1-Eya2 blk: Six1/Eya2 interaction inhibition. Q15475+O00167. activity change, % (test concentration not listed). actives 0.56% (n = 360,000). AlphaScreen GST-Six1/His-Eya2 binding, biochemical; hits give low values; control for the full effect not named in the record; in the data active = activity change below about -65%; inconclusive = about -30% to -65%; inactive = above about -30%; note: % is set by controls: 0 for no effect and ±100 for the full control effect; compound concentration not given in the record
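Homogeneous AlphaScreen proximity assay pairing GST-Six1 with His-tagged Eya2 (added as 5X mix: 250 nM and 500 nM) in 50 mM Tris pH 8.0, 300 mM NaCl, 1 mM TCEP. Glutathione donor and nickel acceptor beads; 1 h, 37 °C, dark.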
CtBP-E1A inh: inhibitors of CtBP/E1A interaction. AlphaScreen GST-E1A/His-CtBP binding, 1536-well; hits give low values; control for the full effect not named in the record. activity change, % (no concentration beside the values). actives 0.49% (n = 340,000). AID 651724; in the data active means activity change below about -65%; inconclusive means about -30% to -65%; inactive means above about -30%; note: % is set by controls: 0 for no effect and ±100 for the full control effect; compound concentration not given in the record
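In 5 uL wells, 23 nL compound meets equimolar GST-E1A and His-CtBP (5X stock 125 nM each) for 2 h, 37 °C. Beads (5X, 50 ug/mL) then 1 h, 37 °C, dark.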
D2 agonist: agonists of human D2 dopamine receptor (beta-arrestin); P14416; DiscoveRx PathHunter D2 beta-arrestin, luminescence, 90 min; 100% = 57 uM dopamine signal; activation, % (no concentration beside the values); actives 0.084% (n = 360,000); in the data active = activation above about 40%; inconclusive = about 15% to 40%; inactive = below about 15%; note: compound concentration not given in the record; the text of the record calls up to 30% inactive
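DiscoveRx PathHunter D2 beta-arrestin cells (2,100/well) attached overnight, then compound-stimulated 90 min at 37 C in HBSS/10 mM HEPES/0.1% Tween-20 buffer; beta-galactosidase complementation read by luminescence after 1 h at ambient temperature. Dopamine 57 uM final (EC100) as control.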
Sfp PPTase inh: inhibitors of Bacillus subtilis Sfp phosphopantetheinyl transferase | actives 3.5% (n = 310,000) | Biochemical Sfp PPTase activity, qHTS | Q9F4F7 | Potency, µM, without a hit: max response, negative = inhibition, most hits filed as inhibitors; active = well fitted inhibition curve with a large enough effect; inconclusive = small, poorly fitted or top-dose-only effect, or another doubt; inactive = no such curve, though single readings can be large or run the other way;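 note: the enzyme is Sfp with the accession as filed and its product quenches rhodamine fluorescence; potency is the fitted concentration of half-maximal effect; 0% = enzyme reaction without inhibitor and -100% = no enzyme wells; top concentration of the series not given in the record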
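Compounds were incubated with enzyme (final 15 nM) for 15 min at room temperature before substrate addition started the reaction. Fluorescence at 525 nm excitation, 598 nm emission was recorded immediately and after 30 minutes.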
PINK1 modulator: PINK1 expression modulation; PINK1 immunofluorescence, high-content cytometry, 24 h; Potency, µM (series often up to 76.6 µM), inactives show at the top dose activation (PINK1 increase), usual class: activators; actives 0.2% (n = 410,000); AID 624263; active = well fitted activation curve with a large enough effect; inconclusive = small, poorly fitted or top-dose-only effect; inactive = flat fitted curve, though single readings scatter; cell line not stated here;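 note: potency is the fitted concentration of half-maximal effect; % of control where 0% means no effect; nearly all actives have a fitted effect of over 65% in size; a mitochondrial uncoupler was the plate control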
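PINK1 protein level read as immunofluorescence by microplate cytometer in a fixed, stained stable cell line after 24 h exposure to five compound concentrations, with CCCP as control.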
TRPV1 potentiator: human TRPV1 potentiation. potentiation, % at 8.33 µM. actives 0.02% (n = 320,000). Q8NER1. TRPV1-expressing cells, Fluo-8 calcium influx, capsaicin EC20 potentiation; host cell line not named in the record; control for the full effect not named in the record; active means potentiation above 80%; inconclusive means 30% to 80%; inactive means below 30%; note: 0% is about no effect
Target sequence (Q8NER1 whole entry, looked up): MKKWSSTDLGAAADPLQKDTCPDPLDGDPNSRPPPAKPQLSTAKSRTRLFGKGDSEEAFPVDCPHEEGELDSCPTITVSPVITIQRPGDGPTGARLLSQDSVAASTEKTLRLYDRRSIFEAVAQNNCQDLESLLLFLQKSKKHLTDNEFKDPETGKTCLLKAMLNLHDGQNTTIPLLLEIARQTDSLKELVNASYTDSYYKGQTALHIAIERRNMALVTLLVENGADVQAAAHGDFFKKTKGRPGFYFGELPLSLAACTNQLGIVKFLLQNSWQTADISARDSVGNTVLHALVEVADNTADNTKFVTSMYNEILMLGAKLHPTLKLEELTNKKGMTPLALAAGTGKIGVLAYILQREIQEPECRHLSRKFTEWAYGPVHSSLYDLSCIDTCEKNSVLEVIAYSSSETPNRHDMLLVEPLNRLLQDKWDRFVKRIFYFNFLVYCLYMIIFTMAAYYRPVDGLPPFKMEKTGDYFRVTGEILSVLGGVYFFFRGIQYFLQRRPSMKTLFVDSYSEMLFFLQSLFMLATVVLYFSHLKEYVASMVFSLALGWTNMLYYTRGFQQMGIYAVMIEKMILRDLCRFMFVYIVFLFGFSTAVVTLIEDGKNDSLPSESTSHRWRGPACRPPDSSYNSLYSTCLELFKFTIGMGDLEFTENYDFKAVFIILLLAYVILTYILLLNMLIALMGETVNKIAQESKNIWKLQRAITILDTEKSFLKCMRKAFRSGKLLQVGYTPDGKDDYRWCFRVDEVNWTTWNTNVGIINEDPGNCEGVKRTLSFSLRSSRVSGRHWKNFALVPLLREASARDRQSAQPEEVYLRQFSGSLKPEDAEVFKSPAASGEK
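TRPV1-expressing cells were cultured overnight at 35.5C and loaded with Fluo-8 calcium dye for 40 to 90 min at room temperature. After a 10 s baseline, compound was added and calcium influx was read kinetically for 3 min (ex 480/em 520 nm).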
* hit, by the source's call; u = inconclusive; x = not tested or not shown; & = joins results of further samples; [ ] = dose if it differs, or a comment. This is a random part of the collection. About 3.7% of those tested had a hit in this group.

SMILES | D2 PAM | Six1-Eya2 blk | CtBP-E1A inh | D2 agonist | Sfp PPTase inh | PINK1 modulator | TRPV1 potentiator
COc1cnn(-c2ccc([N+](=O)[O-])cc2)c(=O)c1Cl | 0 | 1 | -1 | 1.0 | x | 6.9% | x
CCN(CC)C(=O)CSc1nnc(CNc2ccc(F)cc2)o1 | 5 | -3 | 2 | -2.1 | 16% | -0.8% | 13
COc1cc(/C=C(/C#N)c2ccc(C)cc2)ccc1Oc1ccc([N+](=O)[O-])cn1 | u | -20 | -4 | 3.0 | 1% | x | 3
C/C(=N\O)C(C)(C)Nc1cccc(Br)c1 | -17 | 2 | x | -2.6 | 9% | 0.8% | -6
O=S1(=O)NC(=NCc2ccco2)c2ccccc21 | -9 | -1 | 0 | -1.2 | 6% | 9.4%[38.3 µM] | 23
Cc1ccc(OC(C)C(=O)N2CC(=O)Nc3ccccc32)cc1 (stereo not drawn) | -5 | 3 | 7 | -1.1 | 13% | 1.4% | 4
CCOC(=O)N1CCN(C(=O)c2cccc(N3C(=O)NC4CC3(C)Oc3ccc(Cl)cc34)c2)CC1 (stereo not drawn) | -3 | 0 | 0 | -3.6 | 0% | 3.7% | u
COc1ccc(S(=O)(=O)Cc2ccc(C(=O)N3CCN(c4ccccc4F)CC3)o2)cc1 | -2 | -1 | 0 | -3.3 | 8% | 1.1% | 0
O=C(Nc1ccc(-c2nc3ccccc3c(=O)o2)cc1)c1ccco1 | 6 | 10 | 7 | 0.1 | 8% | 0.1% | -1
Cc1ccc(-c2nc3n(n2)Cc2ccccc2-3)cc1 | -10 | 6 | -3 | -5.4 | -1% | 3.7% | 4
CC(C)(C)NC(=O)CSc1nnc(-c2ccco2)n1Cc1ccco1 | -5 | -5 | 0 | -0.6 | 9% | u | -3
O=C(c1cc2ccccc2oc1=O)N1CCN(CCc2ccccc2)CC1 | -9 | -1 | 0 | -2.6 | 5% | -7.1%[38.3 µM] | 2
COc1ccc(NC(=O)CCC(=O)N/N=C/c2cn(C)nc2C)cc1 | -3 | -1 | 6 | -3.8 | 9% | -0.5% | -23
CC(C)(C)NC(=O)NCc1cccnc1 | -6 | 4 | -4 | -4.6 | 18% | 1.2% | 9
Cn1cnc([N+](=O)[O-])c1Sc1nc(N)nc2c1ncn2Cc1ccccc1 | -5 | 0 | -6 | -1.6 | x | 3.8% | x
CCCCN(C=O)c1c(CC)nc2ccc(C(=O)N(C)Cc3ccccc3)cn12 | -5 | 12 | -2 | -1.5 | x | 6.6% | x
CCOC(=O)C1CCN(S(=O)(=O)c2cc(C(=O)N3CCCCC3)ccc2OC)CC1 | 11 | 0 | 6 | -0.8 | 3% | 1.0% | -6
CC1(C)CC(NC(=O)c2coc(=O)c(Br)c2)CC(C)(C)N1 | -11 | 3 | 10 | -3.5 | 21% | 2.9% | -7
O=C(O)c1cccc(S(=O)(=O)N2CCN(Cc3ccc4c(c3)OCO4)CC2)c1 | 0 | 5 | 1 | 0.1 | 7% | 2.3% | 20
Cc1ccc(C)c(N2CCN(C(=O)C3CCCN(S(=O)(=O)c4cnc[nH]4)C3)CC2)c1 (stereo not drawn) | -5 | 1 | 0 | -3.2 | 6% | 3.8% | 0
CCOC(=O)N1CCC(NC(=O)CCC(=O)N2CCOc3ccccc32)CC1 | 1 | -3 | 5 | -2.8 | 16% | -0.1% | 3
Cc1ccccc1C(=O)NNC(=O)C1CC(=O)N(c2ccc3c(c2)OCCO3)C1 (stereo not drawn) | -11 | 2 | -2 | 1.5 | x | -0.1% | -17
CN1C(=O)C(C)(C)c2cc(S(=O)(=O)N3CCN(c4ccc(F)cc4)CC3)ccc21 | -6 | -3 | 2 | -0.2 | 6% | 0.2% | -4
Cc1ccccc1N/C=C/C(=C(C#N)C#N)N(C)C | -2 | 3 | 5 | -1.6 | 4% | x | 2
CCCCn1cnc2c1c(=O)[nH]c(=O)n2CCCC | -1 | -1 | 2 | -0.4 | -2% | 1.1% | -1
CC(C)Cn1c(N)c(C(=O)COC(=O)/C=C/c2cccs2)c(=O)n(C)c1=O | 0 | 8 | -5 | 2.7 | -5% | -0.1% | 1
COc1ccc(-c2cc(NC=O)c3ncc(-c4ccc(C(C)=O)cc4)n3c2)cn1 | 11 | -15 | -5 | 14 | x | 2.7% | x
O=C(NCC(c1ccco1)N1CCOCC1)c1ccc(F)cc1 (stereo not drawn) | -2 | 9 | 4 | 1.5 | x | 6.8% | u
O=C(NCc1ccc(F)cc1)C(=O)c1cn(CC(=O)N2CCCC2)c2ccccc12 | 2 | -1 | -5 | 4.1 | 3% | -0.7% | 3
CC(CNC(=O)c1cc(COc2ccc3ncccc3c2)on1)c1ccccc1 (stereo not drawn) | 20 | -1 | -10 | 2.1 | -7% | 4.9% | -9

Profiles as entered above. Values in the order: D2 PAM, Six1-Eya2 blk, CtBP-E1A inh, D2 agonist, Sfp PPTase inh, PINK1 modulator, TRPV1 potentiator
O=C(O)c1cccc(S(=O)(=O)N2CCN(Cc3ccc4c(c3)OCO4)CC2)c1 reads 0, 5, 1, 0.1, 7%, 2.3%, 20
CCCCN(C=O)c1c(CC)nc2ccc(C(=O)N(C)Cc3ccccc3)cn12 reads -5, 12, -2, -1.5, x, 6.6%, x
COc1ccc(-c2cc(NC=O)c3ncc(-c4ccc(C(C)=O)cc4)n3c2)cn1 reads 11, -15, -5, 14, x, 2.7%, x
Cc1ccccc1N/C=C/C(=C(C#N)C#N)N(C)C reads -2, 3, 5, -1.6, 4%, x, 2

Remaining list, next part
SMILES | D2 PAM | Six1-Eya2 blk | CtBP-E1A inh | D2 agonist | Sfp PPTase inh | PINK1 modulator | TRPV1 potentiator
Cc1cccc(OCCCN2C(=O)C(=O)c3cc(C)ccc32)c1 | -26 | -4 | -3 | -19 | 0% | -1.3% | -14
O=C(Oc1cc(=O)oc2ccccc12)c1ccccc1 | -28 | 1 | 2 | -2.7 | -7% | 7.9% | -4
CC(=O)/C(C(=N)N1CCN(c2cccc(Cl)c2)CC1)=C(\C)O | -9 | 0 | 2 | -3.0 | -7% | x | 0
CCCCCCN1CC(=O)N2[C@@H](Cc3c([nH]c4ccccc34)C2(C)C)C1=O | -16 | -5 | x | -4.8 | 5% | 4.3% | -6
CCCCN(CC)CCNC(=O)Cn1cc2c(n1)-c1c(oc(C(=O)N3CCCC3)c1C)CC2 | -4 | -3 | x | 1.2 | -1% | -0.6%&0.9% | 0
C/C(=N/NC(=O)c1cc(Cl)ccc1O)C12CC3CC(CC(C3)C1)C2 | -5 | -14 | -5 | -6.8 | 20% | 2.6% | 11
Clc1ccc(CSc2nnc(-c3cccnc3)o2)cc1 | -10 | 1 | -3 | -1.0 | 9% | -2.2% | 4
COc1ccc(OC2CCN(C(=O)Nc3ccc(C)cc3)CC2)cc1 | -21 | -5 | 4 | -8.1 | -5% | 0.2% | 2
CCn1cc(C(=O)N(C)c2ccccc2F)c2cc(OC)c(OC)cc2c1=O | 8 | 2 | -1 | -1.0 | 2% | 0.5% | 16
CCc1nnc(NC=C2C(=O)OC(C)(C)OC2=O)s1 | -6 | 5 | -5 | 1.3 | -3% | -1.9%[38.3 µM] | 1
COc1ccc(C(=O)NCC(=O)N2CCCC(C(F)(F)F)C2)cc1OC (stereo not drawn) | -10 | 5 | 6 | 2.9 | x | -0.8% | -2
COc1cc(C=O)ccc1OCC(=O)Nc1cccc(S(=O)(=O)N(C)c2ccccc2)c1 | 12 | -16 | 2 | 2.2 | x | -2.5% | 4
CC(C)N1CCC(=NNC(=O)c2cccs2)CC1 | -7 | 2 | 6 | -2.9 | 5% | 0.0% | 5
CCc1cc2c3c([nH]c2cc1S(=O)(=O)NCCCOC)CC(C)(C)CC3=O | -6 | 0 | x | -5.4 | 9% | 1.6% | 11
CCOc1ccccc1-n1c(SCC(N)=O)nnc1-c1ccccc1 | -4 | 3 | 4 | -3.9 | 6% | -1.3%[38.3 µM] | 4
O=C(COc1ccccc1)NCCSCc1ccccc1Cl | -9 | 7 | 7 | 3.8 | -14% | -1.0% | -2
COc1cccc(CNC(=O)C2CCCN(S(=O)(=O)c3c(C)n[nH]c3C)C2)c1 (stereo not drawn) | -3 | 8 | 7 | 1.1 | 23% | 0.2% | 2
COc1ccccc1NS(=O)(=O)c1cc(NC(=O)c2ccccc2F)ccc1N1CCOCC1 | -8 | -17 | -11 | 2.8 | -2% | 0.1% | 6
O=C(CSc1ccccc1)NCc1ccc(F)cc1 | -3 | 12 | 26 | 2.8 | 6% | 0.2% | -6
CCOc1ccc(S(=O)(=O)NC2CCCCCC2)cc1 | -14 | 15 | x | -0.5 | 2% | 0.5% | -6
Cc1ccc(S(=O)(=O)N2CCOCC2)cc1NC(=O)COC(=O)c1cnccn1 | -2 | 0 | 1 | -1.1 | x | 0.0% | -4
CCCN(CC(=O)Nc1ccccc1C)C(=O)c1ccc(N2CCCC(C)C2)c([N+](=O)[O-])c1 (stereo not drawn) | -6 | -20 | -22 | -5.5 | x | 5.8% | x
CC(C)CN(C(=O)COC(=O)CNC(=O)c1ccccc1)c1c(N)n(Cc2ccccc2)c(=O)[nH]c1=O | -6 | 0 | 6 | -4.4 | x | -0.7% | 5
O=C(C[n+]1ccccc1)N/N=C/c1ccc(Cl)cc1 | -3 | -22 | -12 | 3.3 | x | 0.6% | -4
COc1cccc(-c2ccc(NC(=O)C3CCCN(Cc4ccco4)C3)cc2)c1 (stereo not drawn) | -10 | -13 | 1 | 0.1 | x | 3.7% | x
CC(C)Oc1ccc(C(=O)Nc2ncn[nH]2)cc1 | -8 | -15 | -4 | 3.5 | 9% | -0.4% | -8
CCNC(=S)Nc1ccc(-c2nc3ccccc3[nH]2)cc1 | -8 | -15 | -10 | -2.5 | -13% | 3.2% | 12
O=C(N/N=C/c1sc(N2CCOCC2)nc1-c1ccccc1)c1ccc(O)cc1 | -9 | u | -12 | 4.3 | 10% | 7.8% | 8
Brc1ccccc1OCCCN1CCCCCC1 | -16 | -6 | 7 | -2.4 | -5% | 0.4% | 3
CCCCN(C=O)c1c(CC)nc2ccc(C(=O)NCc3ccccc3OC)cn12 | 2 | -1 | 6 | 3.1 | x | 2.5% | x
O=C1N(c2ccccc2)CCN1c1ccccc1 | -11 | 12 | x | 3.3 | 7% | -0.4% | 23
O=C(CNC(=O)/C(=C\c1ccccc1)NC(=O)c1ccc(Br)cc1)OCc1ccccc1 | -17 | -18 | -1 | -3.3 | -26% | 1.9% | 3
COC(c1ccccc1)c1nnc(CCC(=O)NCCc2ccc(Cl)cc2)o1 (stereo not drawn) | -3 | 3 | 1 | -1.6 | -6% | 0.6% | 10
